From PubChem BioAssay
FGF22 binding = shifts melting point of recombinant human FGF22. Q9HCT0. recombinant FGF22 thermal shift, SYPRO orange fluorescence; percent of sucrose octasulfate shift, DMSO zero. hit rate 1.5% among 340,000. calls only at 9.99 µM;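 active = melting point raised past a set limit in the mean and every replicate; three in four hits are not shown here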
Target sequence (Q9HCT0 whole entry, looked up): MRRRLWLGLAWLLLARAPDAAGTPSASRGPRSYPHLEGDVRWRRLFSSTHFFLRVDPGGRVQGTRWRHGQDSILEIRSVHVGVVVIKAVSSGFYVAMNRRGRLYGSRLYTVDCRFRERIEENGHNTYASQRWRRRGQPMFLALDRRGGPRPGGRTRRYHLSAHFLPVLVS
AF4-AF9 inh = MLL-AF4/AF9 protein interaction inhibition | hit rate 0.47% among 350,000 | P42568 | AlphaScreen, biotin-AF4 peptide binding to FLAG-AF9 | AID 651704 | inhibition, % at 10 µM;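 active = every replicate reaching a set inhibition limit, whatever the replicate mean, cut at about 25% in these data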;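 also: 0% = plate neutral control median and 100% = total signal loss; the record names both 10 and 1 µM as test concentration; the first replicate is given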
Target sequence (P42568 whole entry, looked up): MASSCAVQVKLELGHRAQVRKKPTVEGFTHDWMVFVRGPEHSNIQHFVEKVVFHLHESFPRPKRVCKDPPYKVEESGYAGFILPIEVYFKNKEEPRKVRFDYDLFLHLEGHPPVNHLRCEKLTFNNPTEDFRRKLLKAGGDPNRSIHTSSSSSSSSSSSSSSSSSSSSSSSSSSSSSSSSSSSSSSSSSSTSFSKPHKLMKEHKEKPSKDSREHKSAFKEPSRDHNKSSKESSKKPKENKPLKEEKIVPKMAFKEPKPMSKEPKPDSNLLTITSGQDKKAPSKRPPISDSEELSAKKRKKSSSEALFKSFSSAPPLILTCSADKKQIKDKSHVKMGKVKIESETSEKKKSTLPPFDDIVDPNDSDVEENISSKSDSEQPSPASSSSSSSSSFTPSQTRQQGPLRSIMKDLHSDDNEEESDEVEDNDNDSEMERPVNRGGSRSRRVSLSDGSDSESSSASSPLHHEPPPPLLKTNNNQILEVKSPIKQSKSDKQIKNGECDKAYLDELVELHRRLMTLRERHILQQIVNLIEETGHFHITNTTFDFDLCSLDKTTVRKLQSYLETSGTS
Starred values were filed as active, the others as inactive; i = inactive. A portion of the library. The share of hits here may be higher or lower than overall.

FGF22 binding	AF4-AF9 inh	molecule
i	-2.9	C[C@@H]1CN([C@@H](C)CO)C(=O)c2cccc(NS(=O)(=O)c3ccc(F)cc3)c2O[C@H]1CN(C)C(=O)Nc1ccccc1
i	1.6	CC1(C(=O)Nc2ccc(Cl)c(Cl)c2)CCN1Cc1cc2ccccc2o1 (centres undefined)
i	-0.1	COCCOC(=O)N1C(=O)[C@@]2(c3ccccc31)[C@H](c1ccccc1OCCO)N1[C@H](c3ccccc3)[C@H](c3ccccc3)OC(=O)[C@H]1[C@@H]2C(=O)N1CCN(c2ncccn2)CC1
i	-2.5	CCC(=O)N1CCC(C)(C(=O)Nc2cc(OC)c(OC)c(OC)c2)C1 (centres undefined)
i	-2.0	c1ccc2c(c1)oc1c(-c3ccc4nccn4c3)cccc12
i	-0.5	CO[C@@H]1CN(C)C(=O)c2cc(NC(=O)c3cc(C)on3)ccc2OC[C@@H](C)N(S(=O)(=O)c2ccc(F)cc2)C[C@H]1C
i	-4.4	COc1ccccc1C(=O)NC(=O)COC(=O)c1cnccn1
i	0.3	C[C@@H]1CNC(=O)c2c(C(=O)N[C@@H](Cc3c[nH]c4ccccc34)C(=O)OC(C)(C)C)ncn21
i	-4.6	CCCC[C@@H](O)C1=C(COC)C[C@H]2C(=O)N(Cc3ccccc3)C(=O)[C@H]2[C@H]1CO
i	3.5	COc1ccc(NC(=O)C[C@H]2C(=O)N(c3ccccc3)C[C@@H]2C)cc1
i	-2.6	O=C(CC1CC1)N[C@H]1C[C@@H]2O[C@@H](CO)CC[C@@H]2O[C@@H]1CCc1ccc(C#Cc2ccccc2)cc1
i	-0.8	CC1CN(S(=O)(=O)c2cccc(C(=O)Nc3ccc(N4CCCCC4)cc3)c2)CC(C)O1 (centres undefined)
i	11.1	CC(C)CC#Cc1ccc2c(c1)O[C@H](CN(C)Cc1ccc(C(=O)O)cc1)[C@@H](C)CN([C@H](C)CO)S2(=O)=O
i	1.8	O=C1O[C@H](c2ccccc2)[C@H](c2ccccc2)N2[C@H]1[C@@H](C(=O)N1CCCCCCC1)[C@]1(C(=O)Nc3ccc(C#CCCO)cc31)[C@H]2c1ccc(O)cc1
i	-1.0	CCc1ccc(N2CC(C(=O)OCC(=O)N(CC)c3c(N)n(Cc4ccccc4)c(=O)[nH]c3=O)CC2=O)cc1 (centres undefined)
i	-3.8	COc1ccc(C#Cc2ccc3c(c2)[C@]2(C(=O)N3)[C@H](c3ccccc3OCCO)N3[C@H](c4ccccc4)[C@H](c4ccccc4)OC(=O)[C@H]3[C@@H]2C(=O)N2CCc3cc(OC)c(OC)cc3C2)cc1
i	1.0	COCCCNC(=O)[C@]1(Cc2ccccc2CN=[N+]=[N-])N=C(c2ccc(OCCCO)cc2)O[C@@H]1c1ccccc1
i	-0.8	Cc1ccc(-c2nc3ccc(Cl)cn3c2Cc2cccc(Cl)c2)cc1
i	-2.3	NC(=O)NCC#Cc1ccc2c(c1)[C@]1(C(=O)N2)[C@H](C(=O)O)[C@H]2C(=O)O[C@H](c3ccccc3)[C@H](c3ccccc3)N2[C@@H]1c1ccccc1OCCO
i	0.7	O=C(Nc1ccc(Oc2ccccc2)cc1)c1csc(COCCO)n1
i	-2.0	CC1C(=O)N(Cc2cn(CCC3OCCCO3)nn2)CCS(=O)(=O)N1Cc1ccc(-c2ccc(Cl)c(Cl)c2)cc1 (centres undefined)
i	10.5	COC(=O)[C@]1(Cc2ccccc2)N=C(c2ccc(OCCCO)cc2)O[C@@H]1c1ccccc1
i	-7.7	CN(C)C(=O)c1ccc(-c2ccc([C@@H]3[C@H](CO)N4CCCCN(C(=O)C5CCCC5)C[C@@H]34)cc2)cc1
i	-0.2	CC(C)(C)C1CCSC2=NCCC[C@]2(c2ccccc2)C1 (some centres undefined)
i	9.3	CCCN(C)C[C@@H]1Oc2ncc(C#Cc3ccccc3OC)cc2C(=O)N([C@H](C)CO)C[C@@H]1C
i	-5.0	Cc1noc(C)c1S(=O)(=O)NC(=O)C1(C)CCN1C(=O)Cc1ccc(Cl)cc1Cl (centres undefined)
i	-11.5	O=C(Cc1ccccc1)NC1CCCCC1
i	3.2	CC(=O)c1ccc(Nc2nc(C(N)c3ccccc3Cl)cs2)cc1 (centres undefined)
i	1.3	O=C(NCCc1ccc(F)cc1)C1CCC(=O)N(CC2CCCCC2)C1 (centres undefined)
i	-3.2	O=C(NCC1CCCO1)c1[nH]c(C(F)(F)F)nc1-c1ccccc1 (centres undefined)
i	0.3	Cc1ccc(F)cc1C(=O)N1CCOCC1c1cc(C(=O)NCc2ccccc2)no1 (centres undefined)
i	-18.8	O=C(Nc1ccc2c(c1)OCO2)c1csc([C@@H]2C[C@H](O)[C@@H](CO)O2)n1
i	-6.7	COCCNc1ncnc2c1ncn2[C@H]1CN(Cc2ccc(Cl)cc2)C[C@@H](CO)O1
i	-3.3	C=CCN(Cc1ccccc1)C(=O)[C@H]1N(Cc2ccc(OC)cc2)C(=O)[C@@H]2[C@@H](C(=O)O)C3C=CC21O3 (some centres undefined)
i	-0.6	O=C(OC1CC2CC1[C@H]1CCCCN1C2=O)N1CCN(C(=O)c2ccccc2)CC1 (some centres undefined)
i	-0.4	C=CCOC(=O)[C@@H]1[C@H]2C(=O)O[C@H](c3ccccc3)[C@H](c3ccccc3)N2[C@H](c2ccc(OCCOC(=O)[C@@H]3C[C@@H]4C(=O)NCC(=O)N4[C@@H]3c3ccc(O)cc3)cc2)[C@@]12C(=O)Nc1ccc(I)cc12
i	1.5	CCN(CC(=O)Nc1ccc(NC(C)=O)cc1)CC(=O)Nc1cccc2ccccc12
i	0.3	CCOC(=O)[C@]12CCC=C1N(Cc1cccc3ccccc13)C(=O)[C@H](CC(=O)NCCCCc1ccccc1)C2
i	-3.0	CC(C)(C)OC(=O)CC[C@@]12N=C(c3ccc(OCCCO)cc3)O[C@@H]1c1ccccc1CN(Cc1ccccc1)C2=O
i	-7.7	CN(C)C(=O)c1ccc(-c2ccc([C@H]3[C@@H](CO)N4CCCCN(C(=O)C5CCC5)C[C@H]34)cc2)cc1
i	-0.7	Cc1ccccc1CN1CC2=C(CCN(Cc3ccccc3)C2=O)N2CCN=C12
i	2.5	CC(=O)NC(c1ccc(F)c(F)c1)c1nc(-c2ccc(C)c(C)c2)cs1 (centres undefined)
i	2.4	CO[C@@H]1CN(C)C(=O)c2cc(NC(=O)C3CC3)ccc2OC[C@@H](C)N(S(=O)(=O)c2ccc(Cl)cc2)C[C@H]1C
i	6.1	O=C1C(=Cc2cccc(O)c2O)SC(=S)N1CCCN1CCOCC1
i	11.9	COc1ccc(S(=O)(=O)NC2CCN(Cc3ccc(OCCO)cc3)CC2)cc1
i	-0.1	COc1ccc(COCC23N=C4SCCCN4[C@H](c4ccccc4O2)[C@H]3CO)cc1
i	2.5	C[C@@H]1CCCCO[C@H](CN(C)C(=O)C2CCCCC2)[C@H](C)CN([C@H](C)CO)C(=O)c2cc(NC(=O)Nc3ccccc3)ccc2O1
i	-4.2	C[C@H]1CN(CCc2ccccc2)C(=O)[C@@H]1CC(=O)Nc1ccc(Br)cc1
i	-2.6	CCO[C@H]1OC(C(=O)NCc2nc3ccccc3[nH]2)=C[C@@H](c2coc3ccccc3c2=O)[C@@H]1CCCO
i	-2.6	O=C(Nc1ccccc1F)c1ccc2sc([C@@H]3O[C@H](CO)[C@H](O)[C@H](O)[C@H]3O)nc2c1
i	3.1	NC(=O)[C@H]1[C@@H]2C(=O)O[C@@H](c3ccccc3)[C@@H](c3ccccc3)N2[C@@H](c2ccc(OCCO)cc2)[C@]12C(=O)Nc1ccccc12
i	4.1	COc1cccc(/C=N/Nc2ccc(S(=O)(=O)Nc3ccccc3C(=O)O)cc2[N+](=O)[O-])c1O
i	0.2	CN(C)c1ncnc2c1ncn2[C@H]1CN(Cc2ccc3c(c2)OCO3)C[C@@H](CO)O1
i	-0.5	OC(CSc1ccccn1)CC(O)c1ccccc1 (centres undefined)
i	0.2	COc1ccc([C@H]2N[C@]3(CCCN(Cc4ccc(F)cc4)C3=O)[C@H]3C(=O)N(Cc4ccccc4)C(=O)[C@@H]23)cc1
i	2.4	COc1ccc(CN2CCC2(C)C(=O)Nc2ccc(OC)c(OC)c2)cc1 (centres undefined)
i	9.7	COc1ccccc1CN1C(=O)c2ccccc2[C@](Cc2ccccc2I)(C(=O)NCCN2CCOCC2)[C@@H]1c1ccc(CO)cc1
i	1.7	Cc1c(C)c2c(OCC(=O)NCC3CCC(C(=O)O)CC3)cc3c(c2oc1=O)CCC(C)(C)O3 (centres undefined)
i	3.4	COc1ccc(C(N)c2csc(Nc3ccc(C(=O)c4ccccc4)cc3)n2)cc1 (centres undefined)
i	2.1	COc1ccc(C(C)(O)c2nc(-c3ccncc3)cs2)cc1 (centres undefined)

New compounds follow
FGF22 binding	AF4-AF9 inh	molecule
i	0.3	O=C(NCCN1CCOCC1)[C@@]1(Cc2ccccc2)COC(c2ccc(OCCCO)cc2)=N1
i	-0.9	O=C(C1CCCC1)N1CCCCN2[C@H](CO)[C@H](c3ccc(C#CC4(O)CCCC4)cc3)[C@@H]2C1
i	0.9	COc1ccc(CN2CCC[C@]3(N[C@H](c4ccc(C(F)(F)F)cc4)[C@@H]4C(=O)N(Cc5ccccc5)C(=O)[C@@H]43)C2=O)cc1
i	0.4	[N-]=[N+]=NCc1ccccc1C[C@]1(C(=O)NCC(O)CO)COC(c2ccc(OCCCO)cc2)=N1 (some centres undefined)
i	-1.0	COC(=O)C[C@@H]1CC[C@@H](NC(=O)c2ccccc2)[C@H](CO)O1
i	1.8	CCOC(=O)[C@]12CCCC=C1N(Cc1ccc3c(c1)OCO3)C(=O)[C@H](CC(=O)NCc1cccs1)C2
i	-17.8	COC(=O)c1ccc2nc(-c3ccco3)c(Cc3ccccc3)n2c1
i	1.7	c1ccc2nc(NN=C3CCCCC3)ccc2c1
i	2.0	NC(=O)[C@H]1[C@@H]2C(=O)O[C@@H](c3ccccc3)[C@@H](c3ccccc3)N2[C@@H](c2ccc(O)cc2)[C@]12C(=O)Nc1ccc(C#CC3(O)CCCCCC3)cc12
i	-0.8	CCCN(C)C[C@@H]1Oc2ncc(-c3cccc(C#N)c3)cc2C(=O)N([C@@H](C)CO)C[C@H]1C
i	6.7	C[C@@H]1CN([C@H](C)CO)C(=O)c2cccc(N(C)C)c2O[C@@H]1CN(C)Cc1ccc(C(=O)Nc2ccccc2N)cc1
i	-2.6	O=C(c1cccc(F)c1)N1CCCCN2[C@H](CO)[C@@H](c3ccc(-c4ccc(F)cc4)cc3)[C@@H]2C1
i	-4.6	CN(C)CC#Cc1ccc([C@@H]2[C@@H](CO)N3CCCCN(C(=O)C4CC4)C[C@@H]23)cc1
i	-7.5	COc1cccc(CNc2nc3cc(-c4ccccc4)sc3c(=O)n2C)c1
i	3.8	O=C(C1CCCC1)N1CCCCN2[C@@H](CO)[C@H](c3ccc(C#CC4CC4)cc3)[C@@H]2C1
i	-4.9	CC(=O)OCO/N=[N+](\[O-])N1CCCC1
i	-1.6	COCCOC(=O)N1C(=O)[C@@]2(c3cc(C#CCC(C(=O)OC)C(=O)OC)ccc31)[C@H](C(=O)N1CCN(c3ncccn3)CC1)[C@H]1C(=O)O[C@H](c3ccccc3)[C@H](c3ccccc3)N1[C@@H]2c1ccc(O)cc1
i	6.6	Nc1nc(N)c(N=O)c(Nc2ccc(Cl)c(Cl)c2)n1
i	-6.7	O=S(=O)(c1ccc(F)cc1)N1CCCCN2[C@H](CO)[C@@H](c3ccc(C#CC4CCCC4)cc3)[C@@H]2C1
i	-1.7	CC(=O)c1ccc(N2CCN(C(=O)COc3ccc4ccccc4c3)CC2)cc1
i	1.3	C#CCNC(=O)C[C@@H]1C[C@@]2(C(=O)OCC)CCCC=C2N(Cc2ccc(Cl)cc2Cl)C1=O
i	-12.7	CN(C)CC#Cc1cccc(-c2nc(C(=O)O)cc3c2[C@H](CCO)N(S(=O)C(C)(C)C)C3)c1 (some centres undefined)
i	-1.5	C=CCNC(=O)[C@H]1[C@@H]2C(=O)O[C@@H](c3ccccc3)[C@@H](c3ccccc3)N2[C@@H](c2ccc(O)cc2)[C@]12C(=O)Nc1ccc(C#Cc3ccc(OC)cc3)cc12
i	2.6	CNC[C@@H]1OCCCC[C@H](C)Oc2ccc(N)cc2C(=O)N([C@@H](C)CO)C[C@H]1C
i	0.4	CCn1c(SCC(=O)Nc2ccccc2)nc2c(c1=O)SCC2
i	-1.4	O=S1(=O)N[C@@H](c2ccccc2)COc2cc(Br)ccc21

Some of the entries so far, with two lines to a compound.
Every second line gives: FGF22 binding | AF4-AF9 inh
O=C(NCCN1CCOCC1)[C@@]1(Cc2ccccc2)COC(c2ccc(OCCCO)cc2)=N1
→ i | 0.3
COCCOC(=O)N1C(=O)[C@@]2(c3cc(C#CCC(C(=O)OC)C(=O)OC)ccc31)[C@H](C(=O)N1CCN(c3ncccn3)CC1)[C@H]1C(=O)O[C@H](c3ccccc3)[C@H](c3ccccc3)N1[C@@H]2c1ccc(O)cc1
→ i | -1.6
NC(=O)[C@H]1[C@@H]2C(=O)O[C@@H](c3ccccc3)[C@@H](c3ccccc3)N2[C@@H](c2ccc(O)cc2)[C@]12C(=O)Nc1ccc(C#CC3(O)CCCCCC3)cc12
→ i | 2.0

Complete entries, quoted from the list. Screens in order: FGF22 binding | AF4-AF9 inh
CN(C)CC#Cc1cccc(-c2nc(C(=O)O)cc3c2[C@H](CCO)N(S(=O)C(C)(C)C)C3)c1 (some centres undefined) as listed: i | -12.7
O=C(c1cccc(F)c1)N1CCCCN2[C@H](CO)[C@@H](c3ccc(-c4ccc(F)cc4)cc3)[C@@H]2C1 as listed: i | -2.6
COC(=O)c1ccc2nc(-c3ccco3)c(Cc3ccccc3)n2c1 as listed: i | -17.8
CC(=O)OCO/N=[N+](\[O-])N1CCCC1 as listed: i | -4.9
O=S1(=O)N[C@@H](c2ccccc2)COc2cc(Br)ccc21 as listed: i | -1.4
